RanGTP-Impb inh: inhibitors of RanGTP-importin-beta interaction, primary screen, biochemical, FRET, CFP-Ran, YFP-importin-beta, homogeneous | AID 2216, 2009 | cell-free CFP-Ran/YFP-importin-beta FRET ratio | 300,000 tested, 1.1% active | Ran GTPase (GTP-bound) - importin-beta complex | inhibition, % (concentration not given with the values);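 active = most replicates above 15%; inconclusive = exactly half above 15%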;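 also: 0% = DMSO wells and 100% = Ran loaded with GDP instead of GTP; wells of about 40 µL received 100 nL stock; the first replicate is given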
Beta2AR agonist: beta2AR agonists driving receptor internalization, primary screen, cell-based, FAP fluorogen, flow cytometry; 340,000 tested, 0.43% active; Am2.2-beta2AR cells; reference of the scale not given here; Beta-2 adrenergic receptor (Homo sapiens), P07550; response, % (no concentration beside the values);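 active = response above a set limit, near 3 SD of response in nonfluorescent compounds, cut at about 42% in these data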;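 also: stock transfer was 100 nL into about 11 µL; a reference agonist was the positive control; negative values mostly stem from fluorescent compounds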
Target sequence (P07550 whole entry, looked up): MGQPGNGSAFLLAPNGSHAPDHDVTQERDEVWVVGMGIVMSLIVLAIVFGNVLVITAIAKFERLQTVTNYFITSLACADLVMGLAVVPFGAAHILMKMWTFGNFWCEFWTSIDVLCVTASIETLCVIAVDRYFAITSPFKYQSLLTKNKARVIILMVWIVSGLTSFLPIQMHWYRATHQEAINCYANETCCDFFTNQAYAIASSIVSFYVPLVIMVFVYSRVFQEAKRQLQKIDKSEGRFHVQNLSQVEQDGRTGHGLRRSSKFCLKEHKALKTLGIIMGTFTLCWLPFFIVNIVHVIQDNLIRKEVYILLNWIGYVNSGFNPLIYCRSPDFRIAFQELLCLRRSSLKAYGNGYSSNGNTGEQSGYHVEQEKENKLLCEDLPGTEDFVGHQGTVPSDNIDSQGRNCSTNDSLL
Bfl-1 A1 inh: caspase 3/7 activation in MEF A1-2A-BIM cells, primary screen, A1 inhibitor project, cell-based, luminescence, HTS; caspase activation, % (concentration not given with the values); Caspase-Glo 3/7 luminescence, 3 h; percent of clofoctol response, vehicle zero; 330,000 tested, 0.066% active;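 active = over half of replicate activation scores above 10%, or exactly half above 10 with the replicate mean above 10; inconclusive = replicate mean below 10 yet half the replicates above 10; inactive = over half of replicates below 10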;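 also: wells of about 30 µL received 50 nL stock; many hits fall short of the cut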
Calb FLC: C. albicans growth inhibition with fluconazole, primary screen, CaCi-2 strain, Alamar Blue fluorescence. C. albicans CaCi-2 (fluconazole-resistant clinical isolate) + fluconazole, 48 h. growth inhibition, % (concentration not given with the values). 300,000 tested, 0.57% active. AID 1979, 2009;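 active = most replicates above 75%; inconclusive = exactly half above 75%; inactive = most below 75%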;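 also: all wells also contain fluconazole at 8 µg/ml as a sub-toxic cotreatment; 0% = median of DMSO wells and 100% = median of geldanamycin control wells; wells of about 8 µL received 7.5 nL stock; the first replicate is given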
Beta apoptosis: inhibitors of cytokine-induced beta cell apoptosis, primary screen, luminescence | 300,000 tested, 0.8% active | AID 435005, 2010 | protection from apoptosis, % (test concentration not listed) | INS-1E cytokine-induced death, ATP luminescence, 48 h; percent of positive-control rescue, neutral wells zero;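 active = all replicates at 75% or more, or half of them and the mean; inconclusive = half reach 75% but not the mean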;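 also: 0% = cytokine-treated negative control wells and 100% = positive control rescue; higher means more ATP so stronger rescue from cytokine killing; wells of about 40 µL received 100 nL stock; the first replicate is given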
T cruzi repl: inhibitors of intracellular T. cruzi growth, primary screen, luminescence, NIH3T3 host cells; T. cruzi beta-gal in NIH3T3, 90 h; inhibition, % (no concentration beside the values); 300,000 tested, 1.4% active;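 active = mean inhibition across valid replicates above about 55%, limit read from the data; inconclusive = mean below that limit but half or more replicates reach it; inactive = mean below it, under half of replicates reach it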;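 also: signal also drops with host cell toxicity which is not excluded here; 0% = plate median of DMSO wells and 100% = zero luminescence signal; higher percent means less beta-gal luminescence so fewer parasites; stock transfer was 50 nL into about 50 µL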
UCH37 DUB inh: inhibitors of human UCH37 deubiquitinase, primary screen, biochemical, Ub-AMC cleavage, fluorescence; purified proteasome/UCH37; inhibition, % (no concentration beside the values); 330,000 tested, 0.33% active; AID 588478, 2011;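 active = mean of two replicates above 20%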;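 also: 0% = compound-free wells with enzyme and 100% = wells lacking proteasome; stock transfer was 100 nL into about 20 µL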
Target sequence (Q9Y5K5 whole entry, looked up): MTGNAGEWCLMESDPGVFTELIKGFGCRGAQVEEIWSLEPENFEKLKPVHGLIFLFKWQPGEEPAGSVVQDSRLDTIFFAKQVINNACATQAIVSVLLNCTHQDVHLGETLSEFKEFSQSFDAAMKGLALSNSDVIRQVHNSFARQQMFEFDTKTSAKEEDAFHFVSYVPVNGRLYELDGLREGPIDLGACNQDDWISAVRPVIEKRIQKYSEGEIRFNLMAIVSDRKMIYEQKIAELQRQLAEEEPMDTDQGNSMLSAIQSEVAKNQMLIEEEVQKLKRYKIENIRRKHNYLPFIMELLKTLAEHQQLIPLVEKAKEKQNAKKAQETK
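assay system = human UCH37 enzyme supplied as purified proteasome complex | amount = proteasome at 0.15 nM in the dispensed enzyme solution | schedule = 30 min compound-proteasome preincubation then 25 min substrate reaction, room temperature | measured by = fluorescence, ex 355 nm, em 460 nm | benchmarks = no-proteasome wells (full inhibition) and compound-free wells (no inhibition)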
LANA-H2B inh: blockers of LANA interaction with H2A/H2B – biochemical, FP readout, HTS, primary screen; Protein LANA1 (Human herpesvirus 8 type P (isolate GK18)), Q9QR71; cell-free LANA-H2A/H2B peptide, fluorescence polarization; inhibition, % (test concentration not listed); 320,000 tested, 0.6% active; AID 2629, 2010; in the data active = inhibition mostly above about 10%, no sharp cut-off; inactive = mostly below about 6.7%;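 also: stock transfer was 7.5 nL into about 10 µL; 0% = median of vehicle wells and 100% = median of positive control wells; one replicate is shown; the record names a cut of 25% in any replicate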
Numbers without * were called inactive; ? = inconclusive; · = not tested or not shown.

The opening five compounds (preview)
SMILES	RanGTP-Impb inh	Beta2AR agonist	Bfl-1 A1 inh	Calb FLC	Beta apoptosis	T cruzi repl	UCH37 DUB inh	LANA-H2B inh
Cc1ccc(C(=O)Nc2ccc3c(c2)CCC3)cc1	4.3	23	-5.1	-19	4	2	2.4	1.2
Cc1ccc(NC(=O)C2CCN(S(=O)(=O)c3cccc(C(F)(F)F)c3)CC2)nc1	-1.1	-2	-0.3	2	·	14	3.5	-4.9
Cc1c(Cl)cnc(NC(=O)COC(=O)c2cccc(S(=O)(=O)N3c4ccccc4CC3C)c2)c1Cl (stereo not given)	5.3	-3	0.1	-8	-3	-4	4.0	-1.3
CCCC(=O)N1CCN(c2ccc(NC(=O)c3sc4ccccc4c3Cl)cc2)CC1	0.1	5	0.4	-7	-1	2	5.3	2.2
O=C(NCCc1ccccc1)c1ncn[nH]1	1.4	3	-0.3	8	-7	8	3.2	5.7

Results, previewed entries included:
SMILES	RanGTP-Impb inh	Beta2AR agonist	Bfl-1 A1 inh	Calb FLC	Beta apoptosis	T cruzi repl	UCH37 DUB inh	LANA-H2B inh
Cc1ccc(C(=O)Nc2ccc3c(c2)CCC3)cc1	4.3	23	-5.1	-19	4	2	2.4	1.2
Cc1ccc(NC(=O)C2CCN(S(=O)(=O)c3cccc(C(F)(F)F)c3)CC2)nc1	-1.1	-2	-0.3	2	·	14	3.5	-4.9
Cc1c(Cl)cnc(NC(=O)COC(=O)c2cccc(S(=O)(=O)N3c4ccccc4CC3C)c2)c1Cl (stereo not given)	5.3	-3	0.1	-8	-3	-4	4.0	-1.3
CCCC(=O)N1CCN(c2ccc(NC(=O)c3sc4ccccc4c3Cl)cc2)CC1	0.1	5	0.4	-7	-1	2	5.3	2.2
O=C(NCCc1ccccc1)c1ncn[nH]1	1.4	3	-0.3	8	-7	8	3.2	5.7
CC(=O)N(CN1C(=O)c2ccccc2C1=O)c1ccc2c(c1)oc1ccccc12	-0.5	-7	-1.0	6	0	5	5.4	3.0
O=C1NC(=O)c2cc(Br)cc3cccc1c23	-0.4	-9	0.5	10	·	2	3.6	0.9
Cc1ccc(NC(=O)/C(=C/C=C/c2ccccc2)NC(=O)c2ccccc2)cc1	-3.4	10	0.6	-6	-5	-4	2.9	0.8
O=C(Nc1ccc2c(c1)CCC2)c1cccc(S(=O)(=O)Nc2ccccc2Cl)c1	-1.7	1	-0.6	5	-5	9	5.8	-4.1
CCN(CC)c1ccc2cc(C(N)=O)/c(=N\NC(=O)c3ccncc3)oc2c1	135*	·	-0.8	?	6	2	·	-23
COc1ccc(C(C(=O)NC2CCCC2)N(C(=O)c2ccco2)c2ccccc2C(C)=O)cc1OC (stereo not given)	2.4	-2	-0.2	-7	3	12	3.3	3.6
O=Nc1c(O)n(Cc2cccc(C(F)(F)F)c2)c2ccccc12	-1.2	0	0.2	117*	-1	22	1.6	-12
CSC1=NCCN1CCOc1ccccc1	-1.1	1	-0.9	3	-7	17	4.9	-2.2
O=[N+]([O-])c1cccc2ccc(/C=C/c3ccc(Cl)cc3)nc12	-0.8	6	0.2	22	4	18	3.3	0.6
O=C(O)CC1(CC(=O)Nc2ccc(Cl)cc2C(=O)c2ccccc2)CCCC1	6.4	10	1.0	14	4	32	4.9	3.7
CC(=O)Nc1ccc(/C=C(\C#N)C(N)=O)cc1	1.5	8	-0.6	-8	-8	-1	9.7	0.2
Cn1c(NC(=O)C2CC2)cc(=O)n(C)c1=O	6.5	-1	-0.7	7	-3	-21	4.0	1.7
COc1ccccc1NC(=O)COc1coc(CN2CCN(c3ccccc3)CC2)cc1=O	1.3	-1	0.0	14	·	-4	3.1	0.3
CSc1n[nH]c(N)c1S(=O)(=O)c1ccc(Cl)cc1	-3.5	1	1.1	-1	8	-15	2.3	-6.9
CCOC(=O)/C=C/c1cnn(-c2ccccc2)c1	-2.9	-1	-2.7	7	6	-18	2.1	-2.7
N=c1n(Cc2ccccc2)c2ccccc2n1CC(O)c1ccccc1 (stereo not given)	0.5	12	0.0	-20	15	14	4.8	2.8
Cc1cnc(NC(=O)CSc2nnc(C)n2N)s1	8.9	1	1.5	9	-6	-13	2.7	3.0
CCN(c1ccccc1)S(=O)(=O)c1cc(C(=O)Nc2cccc(Cl)c2)ccc1F	3.3	12	-0.1	-3	·	39	5.5	0.9
Cc1cc(C)n(C(=O)c2nn(C)c(C)c2[N+](=O)[O-])n1	3.3	4	0.1	12	-6	-12	0.3	2.4
CC(NC(=S)Nc1ccc(S(N)(=O)=O)cc1)c1ccc2c(c1)OCO2 (stereo not given)	-1.4	-3	1.6	1	2	-6	5.1	5.0
Nc1nonc1C(=O)NCCNC(=O)c1ccc(Cl)c(Cl)c1	-2.8	-5	-1.0	-3	-2	-3	3.1	-1.5
CC(C)c1ccc(S(=O)(=O)N2CCN(C(=O)n3ccnc3)CC2)cc1	·	-4	-0.2	·	-7	·	-0.2	-2.1
CC1(C)c2ccccc2N2CC(=O)N(CC(N)=O)C21C (stereo not given)	?	2	0.7	-8	1	0	-0.2	-58
C=CCCC(=O)N1CCCC(C(=O)c2cccc(OC)c2)C1 (stereo not given)	-1.4	1	0.3	6	-9	-2	1.2	0.4
O=C(NN1CCOCC1)c1ccccc1NS(=O)(=O)c1ccc(F)cc1F	·	0	-0.2	·	-7	·	0.3	3.2
O=C(Cn1ccc2ccccc2c1=O)NCCC(=O)N1CCN(C2CCCCC2)CC1	10	-7	0.0	5	3	?	2.1	1.3
COC(=O)CCC(=O)OC1(C)C(=O)C=C2C=C(C3CC3)N(Cc3ccco3)C=C2C1=O (stereo not given)	10	0	-0.7	-3	-5	3	-2.3	5.2
O=[N+]([O-])c1c(NCCCO)cc(SCc2ccco2)c2nonc12	-1.9	11	-0.5	-1	-1	0	14	-0.7
CC1CCCN(c2sc(S(C)(=O)=O)nc2S(=O)(=O)c2ccc(Cl)cc2)C1 (stereo not given)	4.8	-7	0.0	-5	-5	3	2.6	-4.8
COc1ccc(OCc2nnc(SCC(=O)N(C)Cc3ccccc3)n2N)cc1	5.4	-3	-0.1	-13	-1	-2	-0.8	5.2
CC(=O)c1cccc(NC(=O)CCc2nnc3ccc(N4CCOCC4)nn23)c1	-0.9	4	0.6	-16	1	-20	4.2	0.2
COc1ccc(C(=O)NCc2nnc(SCC(=O)N3CCCCC3)o2)cc1OC	2.5	-5	0.3	8	2	-15	2.3	1.1
COc1ccc(S(=O)(=O)NCC2CCC(C(=O)O)CC2)cc1 (stereo not given)	0.4	-3	1.5	0	1	1	-0.7	-2.2
COc1cc(/C=C/c2nc3ccccc3c(=O)[nH]2)cc(OC)c1OC	1.2	-1	-0.4	4	2	-13	-15	1.4
O=C(NC1CCN(C(=O)Nc2ccccc2Cl)CC1)c1cccc(F)c1	-3.0	-9	-0.1	-2	3	17	2.2	0.2
O=S(=O)(c1ccc(OCC(O)CN2CCN(c3ccccc3O)CC2)cc1)N1CCOCC1 (stereo not given)	3.5	4	0.0	-3	-3	17	2.5	-9.7
COc1ccc(CCC(=O)N2CCN(S(=O)(=O)c3ccc(OC(F)(F)F)cc3)CC2)cc1	·	-3	-0.5	·	2	·	3.8	7.0
COc1ccc(CCN2C(=NC(=O)CC(C)C)SC3CS(=O)(=O)CC32)cc1 (stereo not given)	7.0	-5	0.2	7	-4	29	3.3	-0.5
CCN=c1scc(-c2ccc(F)cc2)n1/N=C/c1ccccn1	0.0	-7	-0.8	3	7	14	·	0.2
CCNCCNC(=O)c1c(O)c2ccccc2n(CC)c1=O	9.0	5	0.4	4	2	5	2.6	-2.4
O=C(Nc1ccc(NC(=O)c2ccncc2)cc1)c1ccncc1	-0.1	·	2.0	16	3	-6	1.2	1.3
C(=C\c1ccccc1)/CSc1nnc(-c2cccnc2)n1Cc1ccco1	1.0	-13	0.8	-1	-2	-21	0.5	-5.1
O=C(CSc1ccccc1)Nc1ccc(N2CCOCC2)cc1	-0.7	-1	-0.3	-1	5	-17	4.6	0.1
COc1ccc(CC(=O)N2CCOCC2)cc1OC	-1.8	1	0.1	0	2	1	-0.3	4.9
O=C(Nc1ccc(F)cc1)c1ccc2[nH]c(=O)c(=O)[nH]c2c1	-3.7	-5	0.1	·	3	0	-5.1	-1.3
CCN(CC)C(=O)Cn1cc(S(=O)(=O)CC(=O)Nc2ccc(OC)c(OC)c2)c2ccccc21	-1.5	2	1.7	-8	·	-14	3.9	-0.3
C=CCn1c(N)cc(=O)nc1SCC(=O)Nc1cccc2ccccc12	-1.7	-4	-1.8	5	-2	-13	3.2	-4.0
CN1CCN(C(=O)C2=C[C@@H](C3CC3)C[C@@H](OCc3ccc(CO)cc3)O2)CC1	3.2	-5	0.6	-16	-10	-14	-1.3	-7.8
COC(=O)[C@@H]1C[C@@]2(O)[C@H](O)[C@H](O)[C@H](O)C[C@H]2N1CC(c1ccccc1)c1ccccc1	6.4	-1	-0.1	-2	-1	-11	3.9	1.5
OC(c1cccs1)(c1cccs1)C1C[N+]2(CF)CCC1CC2 (stereo not given)	0.1	5	-0.1	6	-2	12	4.2	-1.5
CCOc1ccc(C(=O)Nc2ccc(Cl)cn2)cc1Cl	-1.8	2	-0.8	3	1	9	1.2	0.0

(continued)
SMILES	RanGTP-Impb inh	Beta2AR agonist	Bfl-1 A1 inh	Calb FLC	Beta apoptosis	T cruzi repl	UCH37 DUB inh	LANA-H2B inh
CCCCNC(=O)c1ccc2c(c1)N(CC)C(=O)c1ccccc1S2(=O)=O	3.1	-15	1.8	-1	-3	8	3.5	0.6
CC(=O)c1ccc(N2CCN(S(=O)(=O)c3ccc4c(c3)CC(=O)N4C)CC2)cc1	-1.5	-11	-1.4	2	1	-22	-15	1.3
CCC(=O)Nc1cccc(NC(=O)CSc2nnc(-c3ccc(NS(C)(=O)=O)cc3)n2C)c1	4.2	-5	-0.1	1	-9	-27	3.6	-1.6
CCOC(=O)C(=NC(C)CC)NNc1cccc(C(F)(F)F)c1 (stereo not given)	-0.1	4	1.6	-5	-6	15	2.5	-1.9
CCOC(=O)C1CCN(c2c(NCCN3CCN(c4ccccc4)CC3)c(=O)c2=O)CC1	1.4	2	1.4	-1	·	-5	4.1	-0.3
